Source: PubChem BioAssay
FGF22 binding = binders of human FGF22 protein, primary screen, FGF22 synaptogenesis inhibitor project, biophysical, thermal shift, single point; Fibroblast growth factor 22 (Homo sapiens), Q9HCT0; recombinant FGF22 thermal shift, SYPRO orange fluorescence; percent of sucrose octasulfate shift, DMSO zero; calls only at 9.99 µM; 340,000 tested, 1.5% active; AID 651658, 2012;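 active = melting point raised past a set limit in the mean and every replicate; three in four hits are not shown here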
Target sequence (Q9HCT0 whole entry, looked up): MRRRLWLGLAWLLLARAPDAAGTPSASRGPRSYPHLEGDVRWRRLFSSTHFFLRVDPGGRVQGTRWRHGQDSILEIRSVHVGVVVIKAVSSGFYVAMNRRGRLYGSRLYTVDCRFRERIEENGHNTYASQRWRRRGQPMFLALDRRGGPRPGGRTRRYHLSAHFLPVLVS
Calls only; i = inactive; + = active, no number. Not all compounds are listed; rates above refer to the full screens.

SMILES	FGF22 binding
C[C@@H]1CN([C@H](C)CO)S(=O)(=O)c2ccc(-c3cccc(C#N)c3)cc2O[C@@H]1CN(C)C(=O)c1ccncc1	i
COC(=O)[C@]12C[C@H](CC(=O)NCCCCc3ccccc3)C(=O)N(CCC3=CCCCC3)C1=C[C@H](COCc1ccccc1)O[C@@H]2C	i
N#C[C@@H]1[C@H](c2ccc(C3=CCCCC3)cc2)[C@H](CO)N1C(=O)C1CCOCC1	i
C[C@H](CO)N1C[C@H](C)[C@@H](CN(C)C(=O)Nc2ccc(F)cc2)Oc2ccc(NC(=O)Nc3ccc4c(c3)OCO4)cc2CC1=O	i
CC=Cc1ccc2n(c1=O)C[C@@H]1[C@@H](CO)[C@H](C(=O)Nc3ccc(-c4ccccc4)cc3)[C@H]2N1CC (mixture of isomers)	i
C[C@@H]1CN([C@@H](C)CO)C(=O)Cc2cc(NC(=O)NC3CCCCC3)ccc2O[C@H]1CN(C)Cc1ccncc1	i
CCCNC(=O)[C@@H]1[C@@H](CO)[C@@H]2Cn3c(ccc(-c4cccc(OC)c4)c3=O)[C@H]1N2C(=O)NCCC	i
COC(=O)C[C@@H]1CC[C@H]2[C@H](COc3ccc(NC(=O)c4ccc(C(F)(F)F)cc4)cc3C(=O)N2C)O1	i
COc1ccc(S(=O)(=O)Nc2ccc3c(c2)C(=O)N([C@H](C)CO)C[C@@H](C)[C@@H](CN(C)C(=O)CCC(F)(F)F)OCCCC[C@@H](C)O3)cc1	i
C[C@@H]1CN([C@H](C)CO)C(=O)CCCn2nncc2CO[C@H]1CN(C)C(=O)Nc1ccc(F)cc1	i
O=C(C[C@H]1C[C@H]2c3cc(NC(=O)NC4CCCCC4)ccc3O[C@H]2[C@@H](CO)O1)NCc1ccccc1	i
CC(C)C#Cc1ccc2c(c1)O[C@H](CN(C)C(=O)c1cccc(F)c1)[C@H](C)CN([C@H](C)CO)S2(=O)=O	i
O=C(C1CC1)N1CCCCN2[C@H](CO)[C@@H](c3ccc(-c4cccc(F)c4)cc3)[C@@H]2C1	i
N#C[C@@H]1[C@@H](c2ccc(C#CC3CCCC3)cc2)[C@H](CO)N1S(=O)(=O)c1ccccc1	i
COCC(=O)NC[C@H]1[C@@H](c2ccc(C3=CCCC3)cc2)[C@@H](CO)N1C(C)=O	i
C[C@@H](NC(=O)C[C@H]1C[C@@H]2c3cc(NS(=O)(=O)c4ccc(F)cc4)ccc3O[C@@H]2[C@H](CO)O1)c1ccccc1	i
C[C@@H]1CN([C@H](C)CO)C(=O)c2cc(NS(=O)(=O)c3ccc(F)cc3)ccc2O[C@@H](C)CCCCO[C@H]1CN(C)S(=O)(=O)c1ccc(Cl)cc1	i
COc1cccc(S(=O)(=O)Nc2ccc3c(c2)OC[C@H](C)N(Cc2ccccc2F)C[C@H](C)[C@@H](OC)CN(C)C3=O)c1	i
C[C@@H]1CN([C@@H](C)CO)C(=O)Cc2cc(NC(=O)CCCN(C)C)ccc2O[C@H]1CN(C)C(=O)Nc1ccc(F)cc1	i
C[C@H]1CCCCO[C@@H](CN(C)Cc2ccc(C(F)(F)F)cc2)[C@@H](C)CN([C@@H](C)CO)C(=O)c2cc(NC(=O)Nc3ccc(C(F)(F)F)cc3)ccc2O1	i
COc1ccc(CN(C)C[C@H]2OCCCC[C@@H](C)Oc3ccc(NC(=O)Nc4ccc(F)cc4)cc3C(=O)N([C@H](C)CO)C[C@@H]2C)cc1	i
Cc1noc(C)c1S(=O)(=O)Nc1cccc2c1O[C@@H](CN(C)S(C)(=O)=O)[C@@H](C)CN([C@@H](C)CO)C2=O	i
COc1ccccc1C#Cc1ccc2c(c1)[C@@H]1[C@@H](CCN1C(C)=O)[C@@H](CO)N2C	i
CC(C)NC(=O)Nc1ccc2c(c1)CC(=O)N([C@H](C)CO)C[C@H](C)[C@H](CN(C)Cc1ccc(C(F)(F)F)cc1)O2	i
CN(C)C(=O)C[C@H]1CC[C@H]2[C@H](COc3ccc(NC(=O)Nc4cccc(Cl)c4)cc3C(=O)N2C)O1	i
C[C@H]1CCCCO[C@H](CN(C)C(=O)c2ccncc2)[C@@H](C)CN([C@@H](C)CO)C(=O)c2cc(NC(=O)c3ccncc3)ccc2O1	i
CCCNC(=O)N1C[C@@H]2[C@H](c3ccccc31)[C@H](CO)N2C(=O)NCCC	i
COc1cccc(-c2ccc([C@H]3[C@H](CO)N4CCCCN(CC5CC5)C[C@@H]34)cc2)c1	i
Cc1noc(C)c1NC(=O)N(C)C[C@H]1Oc2ccc(NC(=O)CCN3CCOCC3)cc2CC(=O)N([C@H](C)CO)C[C@@H]1C	i
C[C@@H]1CN([C@H](C)CO)C(=O)c2cccc(NS(=O)(=O)c3ccc(F)cc3)c2O[C@H]1CN(C)S(=O)(=O)c1cn(C)cn1	i
Cc1noc(C)c1NC(=O)Nc1ccc2c(c1)CC(=O)N([C@H](C)CO)C[C@H](C)[C@@H](CN(C)C(=O)Nc1c(C)noc1C)O2	i
C[C@H]1CN([C@@H](C)CO)C(=O)c2cc(NC(=O)c3ccncc3)ccc2O[C@@H]1CN(C)S(C)(=O)=O	i
CCNC(=O)Nc1ccc2c(c1)C(=O)N(C)[C@H]1CC[C@@H](CC(=O)NCC3CC3)O[C@H]1CO2	i
C[C@H]1CN([C@@H](C)CO)C(=O)c2cc(-c3ccccc3F)cnc2O[C@@H]1CN(C)C(=O)NC1CCCC1	i
C[C@@H]1CN([C@H](C)CO)S(=O)(=O)c2ccc(C#CC3CC3)cc2O[C@@H]1CN(C)C(=O)CC1CC1	i
Cn1cnc(S(=O)(=O)N2CCCCN3[C@@H](CO)[C@@H](c4ccc(C#CC5CC5)cc4)[C@@H]3C2)c1	i
N#C[C@@H]1[C@H](c2ccccc2C2=CCCCC2)[C@H](CO)N1C(=O)c1ccccn1	i
C[C@H](CO)N1C[C@H](C)[C@H](CN(C)C(=O)Nc2ccc3c(c2)OCO3)OCCCC[C@H](C)Oc2ccc(NC(=O)Nc3ccc(C(F)(F)F)cc3)cc2C1=O	i
C[C@@H]1CN([C@H](C)CO)C(=O)CCCn2cc(nn2)CO[C@@H]1CN(C)S(=O)(=O)c1ccc(Oc2ccccc2)cc1	i
O=C(C[C@@H]1C=C[C@@H](NC(=O)C2CCOCC2)[C@@H](CO)O1)NCC1CCCCC1	i
CO[C@H]1CN(C)C(=O)c2cc(NC(C)=O)ccc2OC[C@@H](C)N(Cc2cncnc2)C[C@H]1C	i
COc1ccc(NC(=O)N(C)C[C@H]2Oc3ncc(C4=CCCC4)cc3C(=O)N([C@@H](C)CO)C[C@H]2C)cc1	i
O=C(NCC[C@H]1CC[C@@H](NC(=O)C2CC2)[C@@H](CO)O1)Nc1ccc(C(F)(F)F)cc1	i
C[C@@H]1CCCCO[C@H](CN(C)S(=O)(=O)c2ccc(Cl)cc2)[C@@H](C)CN([C@@H](C)CO)C(=O)c2cc(NS(C)(=O)=O)ccc2O1	i
C[C@H]1CN([C@@H](C)CO)C(=O)c2cc(NC(=O)Nc3ccc4c(c3)OCO4)ccc2O[C@H]1CN(C)S(=O)(=O)c1cccs1	i
O=C(C[C@H]1C[C@H]2c3cc(NS(=O)(=O)c4ccc(F)cc4)ccc3O[C@H]2[C@@H](CO)O1)NCc1ccc(Oc2ccccc2)cc1	i
CN(C)C(=O)c1cccc(-c2ccc3c(c2)[C@@H]2[C@@H](CCN2C(=O)C2CC2)[C@H](CO)N3)c1	i
CO[C@@H](CN(C)Cc1ccc2c(c1)OCO2)[C@@H](C)CN(C(=O)Nc1ccc(F)cc1)[C@@H](C)CO	i
C[C@@H]1CN([C@H](C)CO)C(=O)Cc2cc(NC(=O)Nc3ccc(F)cc3)ccc2O[C@@H]1CN(C)Cc1ccncc1	i
CC(C)NC(=O)N(C)C[C@@H]1Oc2c(cccc2N(C)C)C(=O)N([C@@H](C)CO)C[C@@H]1C	i
(continued)
SMILES	FGF22 binding
CCNC(=O)[C@@H]1[C@@H](CO)[C@@H]2Cn3c(ccc(-c4ccccc4)c3=O)[C@@H]2N1CC	i
O=C(C[C@@H]1CC[C@H](NC(=O)c2cccnc2)[C@@H](CO)O1)NCCN1CCCCC1	i
CCNC(=O)C[C@H]1CC[C@@H]2[C@H](COC[C@H](O)CN2C(=O)c2cc(Cl)cc(Cl)c2)O1	i
CCCNC(=O)N1[C@H](C#N)[C@H](c2ccccc2-c2cccc(C)c2)[C@@H]1CO	i
C[C@@H]1CN([C@H](C)CO)S(=O)(=O)c2ccc(-c3cccc(C(=O)N(C)C)c3)cc2O[C@@H]1CN(C)C(=O)Nc1ccccc1	i
C[C@H](CO)N1C[C@H](C)[C@@H](CN(C)C)Oc2cc(-c3ccccc3)ccc2S1(=O)=O	i
C[C@H](CO)N1C[C@H](C)[C@H](CN(C)C(=O)C2CCC2)Oc2ncc(C#CC(C)(C)O)cc2C1=O	i
Cc1noc(C)c1S(=O)(=O)N(C)C[C@H]1OCCCC[C@H](C)Oc2ccc(NC(=O)C3CCCCC3)cc2C(=O)N([C@H](C)CO)C[C@H]1C	i
CO[C@@H](CN(C)Cc1cc(F)ccc1F)[C@H](C)CN([C@@H](C)CO)S(=O)(=O)c1ccc(C)cc1	i
CC(C)C#Cc1cnc2c(c1)C(=O)N([C@H](C)CO)C[C@@H](C)[C@H](CN(C)Cc1ccccc1)O2	i

In the list so far, these contain a CF3 group:
SMILES	FGF22 binding
COC(=O)C[C@@H]1CC[C@H]2[C@H](COc3ccc(NC(=O)c4ccc(C(F)(F)F)cc4)cc3C(=O)N2C)O1	i
COc1ccc(S(=O)(=O)Nc2ccc3c(c2)C(=O)N([C@H](C)CO)C[C@@H](C)[C@@H](CN(C)C(=O)CCC(F)(F)F)OCCCC[C@@H](C)O3)cc1	i
C[C@H]1CCCCO[C@@H](CN(C)Cc2ccc(C(F)(F)F)cc2)[C@@H](C)CN([C@@H](C)CO)C(=O)c2cc(NC(=O)Nc3ccc(C(F)(F)F)cc3)ccc2O1	i
CC(C)NC(=O)Nc1ccc2c(c1)CC(=O)N([C@H](C)CO)C[C@H](C)[C@H](CN(C)Cc1ccc(C(F)(F)F)cc1)O2	i
C[C@H](CO)N1C[C@H](C)[C@H](CN(C)C(=O)Nc2ccc3c(c2)OCO3)OCCCC[C@H](C)Oc2ccc(NC(=O)Nc3ccc(C(F)(F)F)cc3)cc2C1=O	i
O=C(NCC[C@H]1CC[C@@H](NC(=O)C2CC2)[C@@H](CO)O1)Nc1ccc(C(F)(F)F)cc1	i

The results go on.
SMILES	FGF22 binding
O=C(NCC[C@@H]1CC[C@H](NS(=O)(=O)c2ccc(Cl)cc2)[C@@H](CO)O1)c1ccccc1F	i
C[C@@H]1CN([C@@H](C)CO)C(=O)c2cc(-c3ccncc3)cnc2O[C@H]1CN(C)Cc1ccc(Oc2ccccc2)cc1	i
COc1ccc(CN(C)C[C@H]2Oc3ccc(NC(=O)NC(C)C)cc3CC(=O)N([C@@H](C)CO)C[C@@H]2C)cc1	i
C[C@@H]1CN([C@@H](C)CO)C(=O)c2cc(NC(=O)Nc3ccc(C(F)(F)F)cc3)ccc2O[C@@H]1CN(C)Cc1ccc2c(c1)OCO2	i
O=C(C[C@@H]1C=C[C@H](NS(=O)(=O)c2ccc(F)cc2)[C@@H](CO)O1)N1CCN(c2ccccc2)CC1	i
CO[C@@H]1CN(C)C(=O)c2ccc(NC(=O)Nc3cccc(F)c3)cc2OC[C@@H](C)N(C)C[C@@H]1C	i
O=C(NCC[C@H]1CC[C@@H](NC(=O)C2CCCC2)[C@@H](CO)O1)Nc1ccc(Cl)cc1	i
Cc1ccc(S(=O)(=O)N(C)C[C@@H]2Oc3ccc(NC(=O)CCCN(C)C)cc3CC(=O)N([C@H](C)CO)C[C@@H]2C)cc1	i
C[C@@H]1CCCCO[C@H](CN(C)S(=O)(=O)c2cn(C)cn2)[C@@H](C)CN([C@H](C)CO)C(=O)c2cc(NC(=O)Nc3cccc4ccccc34)ccc2O1	+
COc1ccc(S(=O)(=O)N[C@H]2CC[C@H](CCn3cc(-c4cccc(F)c4)nn3)O[C@@H]2CO)cc1	i
CC(=O)N(C)C[C@@H]1Oc2cc(Br)ccc2S(=O)(=O)N([C@@H](C)CO)C[C@H]1C	i
Cc1ccc(S(=O)(=O)N2C[C@@H](O)COC[C@H]3O[C@H](CC(=O)NCC4CCCCC4)CC[C@@H]32)cc1	i
CO[C@@H]1CN(C)C(=O)c2cc(NC(=O)c3ccccc3F)ccc2OC[C@@H](C)N(CC2CCOCC2)C[C@@H]1C	i
COc1ccc(NC(=O)Nc2ccc3c(c2)CC(=O)N([C@H](C)CO)C[C@@H](C)[C@@H](CN(C)C(=O)Nc2ccc4c(c2)OCO4)O3)cc1	i
CN1CCN(C(=O)C[C@@H]2CC[C@H]3[C@H](COc4ccc(NC(=O)c5cscn5)cc4C(=O)N3C)O2)CC1	i
C[C@@H]1CN([C@@H](C)CO)S(=O)(=O)c2ccc(C#Cc3ccccc3)cc2O[C@H]1CN(C)C	i
CCCC(=O)Nc1ccc2c(c1)C(=O)N(C)[C@H]1CC[C@@H](CC(=O)NCCc3ccncc3)O[C@H]1CO2	i
C/C=C/c1cccc(-c2nc(C(=O)NCc3ccccc3)cc3c2[C@@H](CCO)N([S@](=O)C(C)(C)C)C3)c1	i
COCC(=O)N1CCCCN2[C@H](CO)[C@@H](c3ccc(-c4ccc(C)cc4)cc3)[C@@H]2C1	i
COCC#Cc1cnc2c(c1)C(=O)N([C@H](C)CO)C[C@H](C)[C@H](CN(C)C)O2	i
CCC(=O)Nc1ccc2c(c1)C(=O)N(C)C[C@@H](OC)[C@H](C)CN(Cc1ccccc1F)[C@H](C)CO2	i
C[C@@H]1CN([C@H](C)CO)C(=O)Cc2cc(N(C)C)ccc2O[C@@H]1CN(C)Cc1ccc(-c2ccccc2)cc1	i

Four of the compounds above, field by field:
C[C@@H]1CN([C@@H](C)CO)S(=O)(=O)c2ccc(C#Cc3ccccc3)cc2O[C@H]1CN(C)C
  FGF22 binding: i

CCCC(=O)Nc1ccc2c(c1)C(=O)N(C)[C@H]1CC[C@@H](CC(=O)NCCc3ccncc3)O[C@H]1CO2
  FGF22 binding: i

C/C=C/c1cccc(-c2nc(C(=O)NCc3ccccc3)cc3c2[C@@H](CCO)N([S@](=O)C(C)(C)C)C3)c1
  FGF22 binding: i

COCC(=O)N1CCCCN2[C@H](CO)[C@@H](c3ccc(-c4ccc(C)cc4)cc3)[C@@H]2C1
  FGF22 binding: i
